GLA inh pH 4.5: blocks human alpha-galactosidase A at pH 4.5. AID 1467. purified enzyme, 4-MU-alpha-Gal fluorescence, pH 4.5. 230,000 tested, under 10 active. activity change, negative = inhibition, % at 105 µM. P06280; inconclusive = small, poorly fitted or top-dose-only inhibition, or a rising curve; inactive = flat fitted curve, though single readings scatter; no compound was filed as active;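 note: 0% = full activity with enzyme and -100% = basal without enzyme; dose as in the result columns while the protocol names 77 µM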
Target sequence (P06280 whole entry, looked up): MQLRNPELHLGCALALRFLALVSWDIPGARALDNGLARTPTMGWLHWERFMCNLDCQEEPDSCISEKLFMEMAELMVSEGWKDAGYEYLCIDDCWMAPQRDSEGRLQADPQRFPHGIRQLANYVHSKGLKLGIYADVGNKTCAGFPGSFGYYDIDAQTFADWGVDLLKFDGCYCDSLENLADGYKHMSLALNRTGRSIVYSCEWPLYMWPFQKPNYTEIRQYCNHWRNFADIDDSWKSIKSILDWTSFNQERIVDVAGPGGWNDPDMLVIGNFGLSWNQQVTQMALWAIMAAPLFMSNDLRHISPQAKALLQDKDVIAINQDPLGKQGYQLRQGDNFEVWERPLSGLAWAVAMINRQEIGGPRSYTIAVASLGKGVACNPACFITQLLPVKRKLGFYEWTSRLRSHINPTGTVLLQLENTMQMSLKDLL
Rango dissoc inh: inhibition of RanGTP-driven Rango-importin beta dissociation; Biochemical FRET Rango-importin beta, RanGTP-induced dissociation; O95149+P62826; Potency, µM (highest dose often 46.1 µM), for the others: at the top dose activity change, negative = inhibition; hit rate 0.071% among 340,000; active means falling FRET ratio curve, often poorly fitted, with flat reads before Ran was added; inconclusive means other falling curves, or compound fluorescence or quenching; inactive means flat or rising ratio curve;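 note: potency is the fitted concentration of half-maximal effect; % of control where 0% means no effect; nearly all actives have a fitted effect of over 45% in size; -100% = wells without RanGTP and RCC1; the record marks most hits as doubtful in a second field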
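Recombinant Rango FRET biosensor (EYFP–snurportin 1 IBB–cerulean CFP10) at 0.1 uM premixed with 0.25 uM importin beta in PBS, 1 mM DTT, 0.02% Tween-20, 0.1% BSA. Compound added 5 min; RanGTP-RCC1 (0.6 uM Ran, 2 mM GTP, 0.2 uM RCC1) then triggers release, read at 45 min.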
miR-21 reporter: raises the signal of a miR-21 reporter; HeLa miR-21 FLuc reporter, luciferase, 48 h; 340,000 tested, under 10 active; Potency, µM (doses to about 38.3 µM), for inactives: top-dose reporter change, positive = more light; AID 2288; active = well fitted rising curve with a large enough effect; inconclusive = small, poorly fitted or top-dose-only effect; inactive = no such curve, though single readings can be large or run the other way;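 note: % of control where 0% means no effect; miR-21 action dims this reporter so a rising signal means less miR-21 action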
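HeLa miR-21-FLuc reporter line, endogenous miR-21; 2000 cells/well in DMEM/10% FBS; compound titration up to ~40uM final, 48 h, 37 degree Celsius; luciferase detection reagent, 15 min lysis, CCD luminescence.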
Rango complex inh: Rango-importin beta binding inhibition. Potency, µM (series often up to 92.2 µM), for the others: at the highest dose inhibition of complex formation. Rango CFP/YFP FRET sensor + importin beta, 45 min. Q14974. hit rate 0.031% among 340,000; active = rising FRET ratio curve, often small or poorly fitted; inconclusive = mostly compound fluorescence or quenching in the first reads; inactive = flat curves in all reads;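 note: potency is the fitted concentration of half-maximal effect; 0% = DMSO wells and 100% = buffer wells lacking importin beta; nearly all actives have a fitted effect of over 15% in size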
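Inhibition scored from the CFP 486 nm/YFP 530 nm FRET ratio 45 min after adding 0.125 microM importin beta to 50 nM Rango biosensor preincubated 5 min with compound (room temperature, PBS with DTT, Tween-20, BSA). No-importin wells as positive control.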
An asterisk follows results filed as active; ? = inconclusive; / = not tested or not shown; & = joins results of further samples.

Sample of the layout (3 entries):
SMILES	GLA inh pH 4.5	Rango dissoc inh	miR-21 reporter	Rango complex inh
COc1cccc(C2=NOC(C(=O)N3CCN(Cc4ccccc4)CC3)C2)c1OC (stereo unspecified)	0.2	-13.7%	0.5%	4.1%
CCCCN(C(=O)CSCC(=O)Nc1ccc(C)cc1)c1c(N)n(Cc2ccccc2)c(=O)[nH]c1=O	/	-0.4%	/	0.0%
Cc1ccc(S(=O)(=O)N2CCN(C(C)C(=O)N3CCCc4ccccc43)CC2)cc1 (stereo unspecified)	0.9	-2.2%	5.0%	2.4%

The listing, repeating the preview:
SMILES	GLA inh pH 4.5	Rango dissoc inh	miR-21 reporter	Rango complex inh
COc1cccc(C2=NOC(C(=O)N3CCN(Cc4ccccc4)CC3)C2)c1OC (stereo unspecified)	0.2	-13.7%	0.5%	4.1%
CCCCN(C(=O)CSCC(=O)Nc1ccc(C)cc1)c1c(N)n(Cc2ccccc2)c(=O)[nH]c1=O	/	-0.4%	/	0.0%
Cc1ccc(S(=O)(=O)N2CCN(C(C)C(=O)N3CCCc4ccccc43)CC2)cc1 (stereo unspecified)	0.9	-2.2%	5.0%	2.4%
CCCOCCOC(=O)c1[nH]c2c(c1C)C(=O)CC(c1cc(OC)ccc1OC)C2 (stereo unspecified)	6.7	11.5%	-6.1%	0.2%
Cc1ccc(C2/C=C\CC(NC(=O)OCC3c4ccccc4-c4ccccc43)CC(=O)N2Cc2ccccc2)cc1 (stereo unspecified)	/	-3.8%	/	0.3%
COc1ccccc1CNC(=O)COn1nnc2ccc(S(=O)(=O)N3CCOCC3)cc21	/	0.4%	/	?
O=C(Nc1ccc2c(c1)OCO2)N1CCN(C(=O)C2CCCO2)CC1 (stereo unspecified)	3.6	-14.1%	-25.4%	-0.2%
Cn1c(-c2ccc(F)cc2)cnc1NCc1cccc(F)c1	-14.8	0.4%	-0.5%	-0.9%
COc1ccc(C(=O)N/N=C(\C)c2ccc(NC(=O)Cc3ccccc3)cc2)c(OC)c1	/	-0.2%	-12.8%	-4.3%
CCCc1cc(=O)n2nc(N3CCC(C(=O)N4CCN(c5ccc(OC)cc5)CC4)CC3)sc2n1	/	26.4%	22.8%	-2.2%
O=C(OCc1nc2ccsc2c(=O)[nH]1)c1ccc(Cl)s1	/	-10.0%	/	?
O=[N+]([O-])c1ccc(N2CCN(c3ccc(O)cc3)CC2)c(Cl)c1	-9.0	-4.1%	6.1%	-0.2%
Cc1cccc(N2CCN(C(=O)Cc3cn(C)c4ccccc34)CC2)c1C	-1.6	?	18.0%	?
CN1CC(=O)N=C1N	2.4	-23.4%&2.6%	0.3%	-5.4%&-1.6%
COc1ccccc1-c1nnc2sc(-c3cnccn3)nn12	1.7	-7.1%	-1.8%	-5.1%
O=C(c1ccco1)N1CCN(c2ccc(F)cc2)CC1	2.6	-15.1%	-44.8%	-2.0%
COc1cc(C(=O)N2CCC(O)(c3ccccc3)CC2)cc(OC)c1OC	3.2	2.5%	0.2%	0.4%
CCc1cc(=O)oc2c(C)c(OC(C)C(=O)NC3CC(C)(C)NC(C)(C)C3)ccc12 (stereo unspecified)	/	-12.0%	2.3%	0.3%
COc1ccc(/C=N/NC(=O)CCCOc2ccc(Cl)cc2Cl)cc1	-3.0	5.1%	-0.4%	-0.6%
COc1cc(C)nc(N2CCCC(C(=O)NC3CCC(C)CC3)C2)n1 (stereo unspecified)	-7.7	-1.0%	-28.2%	-1.6%
Cc1ccc(C(=O)Nc2nnc(C3=COCCO3)o2)cc1C	/	-9.5%	-16.7%	1.9%
CS(=O)(=O)N(CC(=O)N1CCCC1)c1cc(Cl)c(Cl)cc1Cl	-6.0	0.2%	-1.6%	-2.3%
Cc1csc(NC(=O)C(F)(F)F)n1	-14.1	0.8%	-2.9%	3.2%
CCOc1ccccc1C1C(C#N)=C(N)N(N(C)C)C2=C1C(=O)CCC2 (stereo unspecified)	/	-20.5%	0.5%	2.9%
CC(=O)Nc1ccc(OC(=O)N2CCCC2)cc1	/	-0.1%	-1.4%	4.7%
CC(=O)OCCc1c(C)nc2nc[nH]n2c1=O	-2.4	-6.7%	-1.7%	5.5%
Cc1ccc(C)c(N2C(=O)CS/C2=N\NC(=O)c2ccccc2Cl)c1	11.3	0.3%	-10.9%	-0.4%
Cc1ccccc1NC(=O)COC(=O)/C=C/c1cccc(C(F)(F)F)c1	-8.4	3.4%	0.0%	0.9%
O=C(NC1CCCC1)C(c1ccc(F)cc1)N(Cc1ccccc1Cl)C(=O)CCl (stereo unspecified)	1.0	4.0%	-3.1%	5.0%
Nc1ccc(S(=O)(=O)Nc2nc3ccccc3o2)cc1	/	-16.2%	-2.8%	0.9%
CCc1ccc(-c2nc(CN3CCC(C(=O)N4CCN(c5ccccc5)CC4)CC3)c(C)o2)cc1	-4.2	1.0%	4.6%	-0.1%
CN(C)CCCC(C)(O)C(Cc1ccccc1)c1ccccc1 (stereo unspecified)	-0.2	14.3%	-18.1%	-4.4%
Cn1c(CSCc2ccccc2)n[nH]c1=S	-1.6	0.8%	-5.5%	1.6%
O=C(NCc1ccc2c(c1)OCO2)C(=O)NCC1OCCCN1S(=O)(=O)c1cc(F)ccc1F (stereo unspecified)	/	17.9%	0.0%	0.1%
CS(=O)CCC(NS(=O)(=O)c1ccccc1)C(=O)O (stereo unspecified)	0.6	28.1%	-7.4%	0.2%
Cc1ccc(CN2CCSc3ccc(C(=O)NCC4CCCO4)cc32)cc1 (stereo unspecified)	/	6.8%	1.9%	-1.7%
c1ccc2oc(-c3ccc(Nc4nc(N5CCOCC5)nc(N5CCOCC5)n4)cc3)nc2c1	/	0.7%	/	0.4%
O=C(Nc1ccccc1)c1ccc(Br)o1	-1.0&1.4	-17.6%	-52.2%	4.6%
COc1ccccc1N(CC(=O)NCC1CCCO1)C(=O)CNS(=O)(=O)c1ccccc1 (stereo unspecified)	3.5	3.5%	7.7%	1.1%
CN(Cc1ccc(CNC[C@H]2O[C@@H](n3cnc4c(N)ncnc43)[C@H](O)[C@@H]2O)o1)S(C)(=O)=O	/	-6.8%	/	-5.7%
COc1ccc(CNc2nc3nc(C)cc(C)n3n2)cc1	-22.1	4.1%	-37.8%	0.6%
N#CC1=C(C2CC2)CC(c2ccccc2)C(C#N)=C1N (stereo unspecified)	-2.4	-15.8%	-30.5%	-2.0%
O=C1c2cccnc2C(Nc2ccc(Br)cc2Br)N1Cc1cccs1 (stereo unspecified)	3.1	/	1.2%	/
Cc1ccccc1-n1ncc2c(SCC(=O)N3c4ccccc4CC3C)ncnc21 (stereo unspecified)	-2.5	12.5%	13.8%	-2.8%
CC1=C(N2CCN(c3ncccn3)CC2)CCC1=O	/	22.1%	/	-2.0%
Cc1ccc(CN2CCN(Cc3cccn3-c3ccccn3)CC2CCO)cc1 (stereo unspecified)	-11.0	-13.9%	-0.6%	-4.2%
CC(C)CN(C(=O)COC(=O)/C=C/c1ccccc1)C1CCS(=O)(=O)C1 (stereo unspecified)	/	1.0%	/	-0.2%
O=C(O)CSC1=NC(=Nc2ccc(Cl)cc2)C2(CCCCC2)N1c1cccc(C(=O)O)c1	-0.2	0.5%	-3.8%	-4.0%
CC(C)c1nnc(NC(=O)CCC(=O)N2CCN(c3ccccc3F)CC2)s1	/	-4.2%	-3.5%	-2.2%
COC(=O)C1CCN(C(=O)COC(=O)CNS(=O)(=O)c2ccc(SC)c([N+](=O)[O-])c2)CC1	/	39.0%	/	0.3%
The listing continues.
SMILES	GLA inh pH 4.5	Rango dissoc inh	miR-21 reporter	Rango complex inh
FC(F)(F)c1cc(-c2ccco2)nc(N2CCN(Cc3ccccc3)CC2)n1	0.0	13.7%	-2.4%	-4.1%
Cc1nn(CC(=O)N2CCN(c3ccccc3)CC2)c(=O)c2ccccc12	/	11.0%	-3.9%	4.9%
O=C(CN1CCC(C(=O)c2ccc(Cl)cc2)CC1)NC1CCCC1	/	-11.6%	1.4%	0.7%
COc1ccc(C2CC(c3ccc(Cl)cc3)=NN2c2ccc(S(N)(=O)=O)cc2)cc1 (stereo unspecified)	/	?	/	?
O=c1c2ccccc2sc2ccc(C#CC3(O)CCCCC3)cc12	/	?	/	?
COc1ccc(OCCN2CCN(C(=O)c3ccc(OC)c(OC)c3)CC2)cc1	/	11.7%	11.2%	?
O=C(O)CCN(CC(=O)c1ccc(Cl)cc1)S(=O)(=O)c1ccc([N+](=O)[O-])cc1	/	16.5%	/	3.8%
Cc1ccc(N2CC(C(=O)OCC(=O)c3ccc[nH]3)CC2=O)cc1 (stereo unspecified)	/	-1.5%	/	-4.3%
CCOC(=O)CSc1nc(C)cc(=O)[nH]1	3.7	-9.2%	-5.3%	1.4%
COc1ccc(N2CCN(CCNC(=O)Nc3cc(Cl)ccc3Cl)CC2)cc1	/	-2.5%	-5.9%	-0.5%
COc1ccc(C(=O)CCC(C)(C)[N+](=O)[O-])cc1	-1.4	-5.5%	-29.0%	-6.1%
COc1ccccc1NC(=O)c1sc2nc(C)cc(C)c2c1N	/	-10.1%	/	?
CC(C)Oc1ccc(Nc2ncnc3ccccc23)cc1	8.7	11.3%	-38.6%	-4.5%
O=c1c2cc(NC(=S)NCCN3CCCCCC3)ccc2nc2n1CCCCC2	0.5	-8.3%	-1.8%	2.1%
O=C1NC2(CCOc3ccccc32)C(=O)N1CC(=O)N(Cc1ccccc1)C1CCS(=O)(=O)C1 (stereo unspecified)	-1.7	17.4%	-2.2%	-0.3%
COC(=O)c1ccccc1NC(=O)CSc1nncn1-c1cccnc1	/	0.7%	9.1%	6.1%
Cc1cc(C(=O)OCC(=O)N2CCc3ccccc32)ccc1[N+](=O)[O-]	/	-3.6%	/	6.0%
CCOC(=O)CN(C(=O)CSc1nnc2c(n1)[nH]c1ccccc12)c1ccccc1	-1.2	8.8%	4.6%	-1.2%
Cc1cc(SCC(=O)Nc2ccccc2)n2ncc(-c3ccccc3)c2n1	0.0	?	0.5%	?
Fc1ccc(COc2ccccc2C(=S)N2CCCC2)cc1	-4.0	-8.2%	-18.9%	-1.1%
Cn1c(SCC(=O)NC2CCCC2)nnc1-c1ccncc1	7.2	12.5%	4.3%	0.9%
Cc1ccc(CCN2CC(C(=O)NCCc3ccccc3)CC2=O)cc1 (stereo unspecified)	/	-15.4%	-0.2%	0.6%
COC(=O)Cc1c(C)c2ccc(OCC(=O)c3ccc(OC)c(OC)c3)cc2oc1=O	/	23.5%	-0.4%	-0.8%
CCCCNc1ccc2oc(-c3ccc(OC)cc3)c(-c3ccc(OC)c(F)c3)c2c1	/	-19.4%	/	-1.0%
COC(=O)c1c(C)nc(C)c(C(=O)OC)c1-c1ccc(OC)cc1	5.1	-4.3%	2.1%	-3.2%
COc1ccccc1NC(=O)c1cc2c(CO)cnc(C)c2oc1=Nc1ccccc1	/	-14.0%	1.6%	3.2%
CC(C)OC(=O)Nc1ccc2c(c1)N(C(=O)CCN1CCOCC1)c1ccccc1CC2	6.3	2.2%	5.1%	-0.1%
CCOc1ccc(-c2nnc(SCC(=O)Nc3cc(C)on3)o2)cc1	2.9	-11.8%	5.6%	-3.2%
CCOc1ccc(C(=S)N2CCOCC2)cc1OCC	12.0	-14.7%	-10.7%	5.4%
Cc1ccc(-c2noc(CCCC(=O)N3CCOCC3)n2)cc1	4.6	0.1%	2.5%	-2.7%
Cc1ccc(N2CCN(C(=O)c3ccccc3)CC2)c(C)c1	1.2	4.4%	-2.7%	-3.0%
O=c1c2c(n3cnnc3n1-c1ccccc1)-c1ccccc1CC21CCCCC1	1.0	-7.3%	-9.9%	-4.0%
CC(Oc1cc(-c2ccccc2)cc2ccccc12)C(=O)N1CCOCC1 (stereo unspecified)	5.7	?	3.5%	?
CCCCN(CC)CCNC(=O)c1cc2c(-c3ccc(Cl)cc3)nn(C)c2s1	/	-0.2%	?	-1.1%
Cc1noc(C)c1NC(=O)N(C)C[C@H]1Oc2ccc(NC(=O)Nc3ccc(C(F)(F)F)cc3)cc2C(=O)N([C@H](C)CO)C[C@@H]1C	/	-16.0%	/	0.1%
CCOC(=O)C1CCN(C(=O)COc2ccc(Br)cc2)CC1	-1.9	5.9%	-4.7%	0.3%
N#C/C(=C/c1ccccc1[N+](=O)[O-])c1nc(C2CC2)cs1	-15.7	-2.6%	-18.8%	?
CCC(=O)Nc1nc2nc(C)cc(=O)n2[nH]1	-0.4	22.0%	-0.4%	4.4%

From PubChem

The list is partial; count on the stated rates, not on these rows.
